# MT1-MMP act inh – MT1-MMP (human) activation inhibition; 360,000 compounds, 0.061% hits; P50281; HT1080 RFP-PRO-GFP cells, GFP/RFP ratio fluorescence, overnight; percent of plate control window, DMSO zero; AID 651647; GFP/RFP ratio change, % at 20 µM;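 active means GFP/RFP ratio change of at least 30% with cell ATP level not reduced by more than half and red fluorescence within 50% of control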; further: strong numbers were not always called active
#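 Assay system: RFP-PRO-GFP reporter HT1080 cells; read-out basis: GFP/RFP fluorescence ratio; benchmarks: DMSO wells and RFP-L50D-GFP cells; doses: 20 µM single dose, 1% DMSO; schedule: overnight cell settling, then overnight compound exposure, 37 °C, 5% CO2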
# eIF4H FP inh – inhibitors of RNA binding by human eIF4H; Q15056; eIF4H fluorescence polarization binding assay; inhibition, % at 35 µM; 290,000 compounds, 0.94% hits;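 active means 50% or more with normal probe brightness, or confirmed in later tests; inconclusive means above 50% with abnormal brightness, or retests that disagree; inactive means below 50% or failed in later tests; about a fifth of its hits are not listed in these tables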;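 further: calls also rest on retests at 20 µM and on dose response follow-up; 0% = protein and probe with vehicle and 100% = probe without protein; strong numbers were not always called active; many hits fall short of the cut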
# PABP polyA inh – blocks human PABP binding to poly(A) RNA; fluorescence polarization; inhibition, % at 35 µM; 290,000 compounds, 1% hits;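 active means 50% or more with normal probe brightness, or confirmed in later tests; inconclusive means above 50% with abnormal brightness, or retests that disagree; inactive means below 50% or failed in later tests; about a fifth of its hits are not listed in these tables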;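 further: calls also rest on retests at 20 µM and on dose response follow-up; controls were probe without protein and protein plus probe with vehicle; some compounds called inactive have numbers as strong as hits; many hits fall short of the cut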
# Target sequence (P11940 whole entry, looked up): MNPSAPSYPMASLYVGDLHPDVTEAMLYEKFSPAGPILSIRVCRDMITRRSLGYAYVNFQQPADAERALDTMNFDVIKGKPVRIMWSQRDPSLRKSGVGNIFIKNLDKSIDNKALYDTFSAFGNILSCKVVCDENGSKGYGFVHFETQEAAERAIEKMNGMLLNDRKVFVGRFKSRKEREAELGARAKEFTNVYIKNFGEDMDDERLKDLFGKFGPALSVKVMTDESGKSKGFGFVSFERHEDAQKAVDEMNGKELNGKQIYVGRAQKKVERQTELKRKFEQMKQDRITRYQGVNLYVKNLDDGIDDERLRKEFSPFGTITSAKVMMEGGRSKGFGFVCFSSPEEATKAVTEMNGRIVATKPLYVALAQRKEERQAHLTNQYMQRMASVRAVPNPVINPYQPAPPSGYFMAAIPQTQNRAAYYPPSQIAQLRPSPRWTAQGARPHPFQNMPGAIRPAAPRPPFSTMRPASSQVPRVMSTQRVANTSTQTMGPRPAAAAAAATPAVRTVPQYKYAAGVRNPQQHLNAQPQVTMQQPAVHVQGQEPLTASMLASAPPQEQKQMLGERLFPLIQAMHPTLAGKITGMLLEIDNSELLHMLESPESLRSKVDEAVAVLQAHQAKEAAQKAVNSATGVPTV
# CSC inhib – cancer stem cell inhibition; cancer stem cell-like cells viability, luminescence; inhibition, % at 7.5 µM; 300,000 compounds, 1.1% hits; AID 2717;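 active means mean at 75% or more and at least half the replicates too; inconclusive means mean and replicates disagree; tested in HMLE shEcad cells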;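 further: 0% = median of negative and 100% = median of positive control wells; the first replicate is given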
# Rce1 inhib – blocks yeast Ras-converting enzyme | Q03530 | yeast membranes, quenched prenylated peptide cleavage fluorescence | calls only | 290,000 compounds, 0.27% hits | AID 2563;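 active means fall in fluorescence gain of 50% or more versus controls, with final raw signal at or below 3038400; inconclusive means same 50% fall but final raw signal above 3038400; inactive means fall in fluorescence gain under 50%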;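 further: plate controls were neutral control wells for no effect and wells lacking membranes for full effect; tested at 10 µM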
# Target sequence (Q03530 whole entry, looked up): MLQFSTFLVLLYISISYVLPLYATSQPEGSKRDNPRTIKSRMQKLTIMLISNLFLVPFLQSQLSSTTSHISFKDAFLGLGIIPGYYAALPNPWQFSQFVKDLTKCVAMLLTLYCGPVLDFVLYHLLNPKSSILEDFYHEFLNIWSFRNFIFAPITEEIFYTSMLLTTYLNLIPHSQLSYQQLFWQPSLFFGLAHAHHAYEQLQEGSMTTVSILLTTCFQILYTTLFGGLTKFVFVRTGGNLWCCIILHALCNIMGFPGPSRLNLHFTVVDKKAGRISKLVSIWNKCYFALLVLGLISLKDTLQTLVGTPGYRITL
# HIV Env fusion – HIV envelope-mediated fusion inhibition; HeLa-JRFL Env/CEM21 cell fusion, luciferase; inhibition, % at 12.3 µM; 360,000 compounds, 1.1% hits; AID 651610;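 active means mean replicate inhibition score of at least 50 and every replicate individually at or above 50; inconclusive means only one of the two criteria met; inactive means mean below 50 and not all replicates reaching 50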;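 further: 0% = plate neutral controls and 100% = maraviroc near 300 nM; one replicate is shown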
# UUG fidelity – yeast start codon fidelity modulation. S. cerevisiae UUG-firefly luciferase reporter, luminescence/redox ratio. activity score, % at 18.7 µM. 350,000 compounds, 0.13% hits. AID 602363;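 active means replicate mean at a twofold rise or more, about +100% in these data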;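 further: firefly luciferase made from a UUG start codon reports start codon fidelity; reporter light over untreated wells divided by growth signal over untreated wells; some hits fall short of that in this replicate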
# MT1-MMP act inh RFP – further read-out of MT1-MMP act inh, marked with its call; RFP signal change, %; measured here: RFP expression control read;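 0 = vehicle wells; hits needed this value within 50% of zero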
# Numbers without * were called inactive; i = inactive; ? = inconclusive; . = no result given.
SMILES,MT1-MMP act inh,MT1-MMP act inh RFP,eIF4H FP inh,PABP polyA inh,CSC inhib,Rce1 inhib,HIV Env fusion,UUG fidelity
Cc1ccc(-c2csc3nnc(SCC(=O)NCc4ccc5c(c4)OCO5)n23)cc1,-4,-5,0,-10,-9,i,19,-11
CCOC(=O)c1cc(-c2ccccc2)sc1NC(=O)C(C)OC(=O)c1ccncc1 (stereo not drawn),1,-10,-10,7,-6,i,.,-27
Cc1ccc(CNC(=O)CCS(=O)(=O)c2ccc3c(c2)NC(=O)CO3)cc1,1,1,-12,-2,-9,i,0,-1
COc1ccccc1C(=O)NNC(=O)c1ccc2ccccc2c1O,4,4,.,.,.,.,6,-13
O=C(OCC(=O)N(C1CCCCC1)C1CCCCC1)c1ccco1,0,2,-2,6,-2,i,-19,-16
CCCCn1nc2cc(C(=O)NCc3ccccc3)ccc2c1OCC,5,-2,-8,-5,-7,i,5,-13
COc1cccc(/C=N/NC(=O)CNC(=O)CCc2ccccc2)c1O,7,1,7,5,44,i,21,.
CC(Sc1nncn1C)C(=O)Nc1ccc2ccccc2c1 (stereo not drawn),6,-1,.,.,.,.,-7,-20
Cc1ccc(NC(=O)Cn2nnc(C(=O)Nc3ccc(F)c(Cl)c3)c2N)cc1,-2,-5,-4,1,-1,i,4,-13
O=C(NNc1ccc(C(F)(F)F)cc1[N+](=O)[O-])c1ccc(NS(=O)(=O)c2ccc(F)cc2)cc1,2,-3,0,0,51,i,-200,.
O=[N+]([O-])c1ccc(Cl)cc1NCc1cccnc1,5,0,.,.,17,i,-293,.
CCOc1ccccc1N(CC(=O)NCC1CCCO1)C(=O)CCC(=O)Nc1nccs1 (stereo not drawn),2,1,-2,-1,.,i,10,-6
Cc1ccc(N2C(=O)[C@@H]3C(c4cccnc4)=NO[C@@H]3C2=O)cc1,0,2,0,4,-10,i,-31,-11
COc1cc(NC(=O)c2cccs2)c(C(=O)OCC(=O)NCc2ccccc2)cc1OC,-3,-3,-4,1,52,i,.,-17
CCOC(=O)C1=C(c2ccccc2)N=C2SCC(=O)N2C1c1cccc(OC)c1 (stereo not drawn),5,10,7,8,-13,i,.,.
CCOC(=O)CCS(=O)(=O)c1nc(-c2ccccc2)cc(C(F)(F)F)n1,2,-6,0,-7,100*,i,.,-31
CSc1ccc(C(=S)N2CCN(C(c3ccccc3)c3ccccc3)CC2)cc1,-4,-4,-10,3,-2,i,-58,-13
Cc1nc(Nc2ccc(S(N)(=O)=O)cc2)sc1C(=O)Nc1ccccc1,-1,-4,-8,-15,-14,i,-30,.
CC(=O)/C=C(\C)Nc1ccc(-c2cnc(-c3ccccc3)o2)cc1,-2,0,-7,-9,18,i,.,-19
O=C(c1ccccc1NS(=O)(=O)c1ccc(Br)cc1)N1CCOCC1,-2,2,-3,-10,-7,i,.,17
COc1ccc(NC(=O)CN(C)C(=O)c2cc3c(s2)CCC3)cc1,5,-2,.,.,-3,i,.,-14
CC(=O)NC(=S)Nc1ccc(-c2nc3ccc(C)cc3s2)cc1,11,-3,-9,-9,-9,i,.,-9
O=C(O)CCn1c(=S)oc2ccccc21,-4,6,3,-4,-11,i,.,-12
O=C(Nc1ccc(F)cc1F)c1cccc(S(=O)(=O)N2CCCCC2)c1,2,-7,.,.,-1,.,4,-5
O=C(CSc1nncs1)NCc1ccc(F)cc1,2,4,-4,9,-6,i,9,.
# (more compounds)
SMILES,MT1-MMP act inh,MT1-MMP act inh RFP,eIF4H FP inh,PABP polyA inh,CSC inhib,Rce1 inhib,HIV Env fusion,UUG fidelity
COc1ccc(C)cc1NC(=O)C(Sc1nnc2ccccn12)c1ccccc1 (stereo not drawn),0,2,-3,1,-5,i,11,-14
CCOc1ccc(CCNC(=O)c2cccc(NC3=NC4CS(=O)(=O)CC4S3)c2)cc1OCC (stereo not drawn),0,5,-7,-1,3,i,27,-9
O=C(NC(NCc1ccccc1)C(Cl)(Cl)Cl)c1cccnc1 (stereo not drawn),1,2,-4,-4,-5,i,-73,-4
COCCN(C(=S)Nc1ccc(OC)cc1)C1CCN(C(C)C)CC1,-2,-2,5,3,2,i,11,-2
Cc1ccc(/C=N/NC(=O)c2nc3nc(C)cc(C)n3n2)cc1,-2,3,-2,2,-20,i,-3,.
COc1cccc(CN2CCN(c3cccc(C(F)(F)F)c3)CC2)c1OC,0,-1,2,8,0,i,29,-26
COC1(C2=NCCN2)COc2ccccc2O1 (stereo not drawn),4,5,.,.,-6,.,20,-43
Cc1cc(C)c2c(=O)n(CC(=O)N3CCC(Cc4ccccc4)CC3)sc2n1,.,.,-2,-7,.,i,.,.
Cc1cccc(N2CN=C3SCC(=O)N3C2)c1,-1,4,-7,-8,-13,i,10,-14
O=C(c1ccccc1Cc1ccccc1)N1CCN(S(=O)(=O)c2ccccc2F)CC1,-3,-6,.,.,-1,.,.,-13
CC(c1nc2ccccc2o1)N1C(=O)c2ccccc2C1=O (stereo not drawn),0,4,-4,-8,1,i,34,-12
CCOC(=O)c1cccc(NS(=O)(=O)c2c(C)[nH]c(=O)[nH]c2=O)c1,4,2,3,14,-12,i,15,-11
Cc1ccc(S(=O)(=O)NC(Cc2c[nH]c3ccccc23)C(=O)O)cc1 (stereo not drawn),12,7,.,.,13,i,-61,-8
O=C(CCSCc1ccc(Cl)cc1)NCCc1ccccc1,-1,1,-4,0,-3,i,20,.
COc1ccc(N(C)S(=O)(=O)c2cccc(C(=O)Nc3ccc4c(c3)OCCO4)c2)cc1,-2,-14,-2,-2,2,i,21,.
O=C(NCc1nnc(SCC(=O)N2CCN(c3ccccc3)CC2)o1)c1ccccc1,0,-1,-9,-4,-2,i,21,13
CS(=O)(=O)Nc1nnc(SCC(=O)Nc2cccc([N+](=O)[O-])c2)s1,-3,-3,-13,-8,-4,i,10,.
CCOC(=O)c1c(C)[nH]c(C(=O)OCC(=O)Nc2ccc(OC)c(Cl)c2)c1C,-7,-7,-14,8,-17,i,-212,-14
CCN(CC)C(=O)CSc1nc2cc(S(=O)(=O)N3CCOCC3)ccc2n1CC,-1,1,4,5,.,i,11,-2
COc1ccc2[nH]c(=O)c(CNc3ccc(C)c(C)c3)cc2c1,-29,2,9,22,-6,i,.,-31
CCN(CC)S(=O)(=O)c1cc(NC(=O)C2CCN(c3ncnc4sc(C)c(C)c34)CC2)ccc1Cl,15,-26,.,.,2,i,21,-5
O=C(CCN1CCCCC1)NCNC(=O)CCN1CCCCC1,0,1,8,13,-18,i,-129,-21
O=C(C1CCCN(c2ncnc3c2nc2n3CCCCC2)C1)N1CCN(c2ccc(Cl)cc2)CC1 (stereo not drawn),-3,-18,-9,9,69,i,12,-13
c1ccc(C[C@H]2CN=C(Nc3ccccc3)N2CCCC2CCCCC2)cc1,-2,-1,.,.,4,.,18,-16
O=C(c1cc(-c2cccs2)on1)N1CCCc2ccccc21,-3,1,-12,2,.,i,-4,-9
# The list continues.
SMILES,MT1-MMP act inh,MT1-MMP act inh RFP,eIF4H FP inh,PABP polyA inh,CSC inhib,Rce1 inhib,HIV Env fusion,UUG fidelity
CCOC(=O)C1CCN(C(=O)COC(=O)/C=C/c2ccccc2)CC1,0,0,.,.,10,.,.,3
CCN(CC)CC(C)OC(=O)c1ccccc1Cl (stereo not drawn),-1,1,-10,6,-3,i,0,-1
CC(=O)Nc1ccccc1OCc1nnc(-c2cccs2)o1,-6,-4,-6,-10,.,.,.,-9
O=C(CSCc1ccco1)c1ccc(Cl)s1,.,.,14,6,1,i,.,.
O=C(NC(=S)Nc1nc(-c2ccccc2)cs1)c1cccnc1,7,4,-6,-10,15,i,-29,.
O=C(COC(=O)C1CC1)c1c[nH]c2ccccc12,-7,1,-2,-5,.,i,-27,-16
COc1ccc(Cc2nnc(NS(C)(=O)=O)s2)cc1,-3,1,-4,13,-1,i,.,.
CN(C)CCCN(C(=O)c1ccc([N+](=O)[O-])s1)c1nc2cc3c(cc2s1)OCCO3,2,3,12,44,1,i,-11,-13
COCCN(CC(=O)Nc1cccc(C)c1C)C(=O)c1ccc(S(=O)(=O)N2CCOCC2)cc1,4,5,.,.,.,.,4,-18
Cc1cccc(NC(=O)c2nc[nH]c2C(=O)NC2CCN(C(=O)OC(C)(C)C)CC2)c1,6,-5,.,.,?,.,-1,-8
Cc1nc(SCC(=O)NNC(=O)c2ccc(F)cc2)c2ccccc2n1,-3,5,.,.,-1,.,.,-15
CCC(=O)c1ccc(OCC(O)Cn2nc(C)c(Br)c2C)cc1 (stereo not drawn),-2,-5,2,12,-10,i,16,-10
COc1ccccc1C(=O)Nc1nc(C)cc(C)n1,-1,-1,.,.,-10,i,-3,-13
O=C(NCc1cccs1)N[C@@H](Cc1ccccc1)C(=O)O,15,1,3,3,-5,i,.,-2
O=C(NCc1ccco1)C1CCCN(c2nnc(-n3cccc3)s2)C1 (stereo not drawn),-3,2,49,9,-8,i,-2,-15
Cc1cc(C)c(NC(=O)COC(=O)Cc2ccsc2)c(C)c1,1,4,-16,-3,-11,i,13,.
CC1CC(C)CN(C(=O)CNC(=O)c2sc3ccccc3c2Cl)C1 (stereo not drawn),0,0,.,.,.,.,3,-5
O=C(NCCCN1CCOCC1)c1ccc(/C=C2\Oc3ccccc3N(Cc3ccccc3F)C2=O)cc1,8,7,-6,-6,43,i,13,-2
Cc1cc(C)n2c(SCc3c(C)noc3C)nnc2n1,3,3,-9,1,-1,.,.,-1
CCOc1cccc(C(=O)Nc2ccc3oc(-c4cccnc4)nc3c2)c1,6,-12,-3,-4,2,i,9,.
C/C(=N\NC(=S)NCc1ccccc1)c1cccc(Br)c1,-1,-2,-5,28,7,i,-12,.
O=C(COc1ccc(Br)cc1)Nc1ccc(NC(=O)c2ccccc2)cc1,7,6,19,6,1,i,-7,4
Cc1oc2ccc(OC(=O)c3cccs3)cc2c1C(=O)OC(C)C,1,2,2,5,10,i,-39,1
CCOc1ccccc1/C=C(/NC(=O)c1ccccc1)C(=O)N(CC)CC,2,6,-1,4,-11,i,-8,.
Cc1ccc(C)c(S(=O)(=O)N2CCN(C(=O)Cc3ccsc3)CC2)c1,-4,1,-5,-8,2,i,-3,5
# Next structures
SMILES,MT1-MMP act inh,MT1-MMP act inh RFP,eIF4H FP inh,PABP polyA inh,CSC inhib,Rce1 inhib,HIV Env fusion,UUG fidelity
COc1ccc([N+](=O)[O-])cc1NC(=O)C(C)OC(=O)C1CCC1 (stereo not drawn),0,1,.,.,-1,i,2,.
COc1cc2c(cc1[N+](=O)[O-])-c1ccccc1C2,0,3,.,.,.,.,6,-12
FC(F)(F)c1cccc(CN2CCC(c3cc(-c4cccs4)n[nH]3)CC2)c1,1,-15,-6,1,57,i,0,.
CCOC(=O)/C(C#N)=C1\CC2CCC1(C)C2(C)C (stereo not drawn),0,-1,13,24,.,i,1,.
COc1ccc(C2CC(c3cccs3)=NN2C(=O)c2ccco2)cc1OC (stereo not drawn),4,1,0,-9,-15,i,-10,-6
CNc1ccc2nnc(C(F)(F)C(F)(F)C(F)(F)F)n2n1,1,-2,7,5,-13,i,-2,.
O=c1[nH]c(CS(=O)(=O)c2ccccc2)nc2ccccc12,-5,5,10,-7,-1,i,.,5
O=C(Cn1[nH]c(=O)c2ccccc2c1=O)OCC(=O)N(Cc1ccccc1)Cc1ccccc1,-1,-1,-12,-6,-16,i,.,-24
Cc1cc(NC(=O)COC(=O)C2CSC3(C)CCC(=O)N23)ccc1Br (stereo not drawn),5,5,.,.,-6,.,2,16

# Source: PubChem (several laboratories)

# Only part of the results is shown, so the mix of outcomes need not match the whole.
